# RecA splice inh – inhibitors of M. tuberculosis RecA intein splicing. inhibition, %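 (about 9 µM by stock and volumes)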. 290,000 compounds, 0.75% hits. cell-free RecA intein splicing, fluorescence; in the data active means inhibition above about 30%; inconclusive means no clear call, values can overlap the other calls;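 further: 0% = vehicle wells and 100% = reference inhibitor control wells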
# Target sequence (P9WHJ3 whole entry, looked up, canonical isoform): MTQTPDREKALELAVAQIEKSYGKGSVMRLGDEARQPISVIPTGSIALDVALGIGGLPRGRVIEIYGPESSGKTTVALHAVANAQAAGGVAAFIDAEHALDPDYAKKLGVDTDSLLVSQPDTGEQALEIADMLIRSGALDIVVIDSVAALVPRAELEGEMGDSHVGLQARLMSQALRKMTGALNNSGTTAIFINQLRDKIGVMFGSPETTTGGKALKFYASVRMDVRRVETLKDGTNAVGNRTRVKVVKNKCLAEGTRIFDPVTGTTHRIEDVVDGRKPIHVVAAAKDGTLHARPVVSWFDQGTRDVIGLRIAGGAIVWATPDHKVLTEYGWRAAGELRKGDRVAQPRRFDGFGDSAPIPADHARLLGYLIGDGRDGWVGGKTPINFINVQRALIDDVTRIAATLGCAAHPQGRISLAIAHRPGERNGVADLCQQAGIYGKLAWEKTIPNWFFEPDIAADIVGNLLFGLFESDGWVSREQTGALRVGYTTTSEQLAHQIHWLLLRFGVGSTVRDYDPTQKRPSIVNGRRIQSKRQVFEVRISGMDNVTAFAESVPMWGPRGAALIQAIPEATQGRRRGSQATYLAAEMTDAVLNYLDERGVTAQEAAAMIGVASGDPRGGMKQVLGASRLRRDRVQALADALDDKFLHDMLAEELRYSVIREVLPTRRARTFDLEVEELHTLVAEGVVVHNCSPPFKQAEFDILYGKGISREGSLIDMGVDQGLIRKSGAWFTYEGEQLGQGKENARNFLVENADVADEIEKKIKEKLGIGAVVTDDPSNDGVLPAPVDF
# Arbovirus anti – antivirals against arbovirus infection; arbovirus infection cell-based antiviral screen; 200,000 compounds, 0.37% hits; inhibition, % at 10 µM;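 active means inhibition from about 30%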;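 further: bluetongue infection of BSR cells; cell survival read as ATP light after 72 h; 0% = infected wells without compound and 100% = uninfected wells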
# Mtb betalactam – beta-lactam sensitization of Mtb H37Rv. M. tuberculosis H37Rv growth with meropenem, percent inhibition; hits of this screen are not shown here. inhibition, % at 25 µM. 330,000 compounds, 0.27% hits. AID 434955;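 active means about 74% or more and at least 40 points above the plate without the antibiotic, then above 30% in a dose series; inconclusive means first-round hits that could not be retested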;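 further: growth measured after seven days incubation then overnight dye step; 0% = bacteria only wells and 100% = bacteria with antibiotic; twin plates without the antibiotic show which effects depend on it; some results filed as inactive read as strong as hits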
# Mtb H37Rv – M. tuberculosis H37Rv growth inhibitors, H37Rv strain (AID 1626) | M. tuberculosis H37Rv growth inhibition; higher % means a stronger effect | inhibition, % at 10 µM, or IC50 in µM where a hit was titrated | 220,000 compounds, 0.95% hits;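 active means confirmed in a dose series; inconclusive means inhibition above 80% but not taken into the dose series; inactive means below 80% or under 30% at every dose of the series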;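 further: bacteria incubated seven days before Alamar blue readout; 0% = bacteria only wells and 100% = bacteria with antibiotic wells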
# YopH inh – blocks Yersinia enterocolitica YopH tyrosine phosphatase | fluorescence Ex485/Em525 | inhibition, %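 (about 10 µM by stock and volumes)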 | 140,000 compounds, 0.16% hits;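 active means inhibition of 50% or more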;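 further: controls were vehicle for no effect and minimum signal wells for full effect; inactives centre near -20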
# Arbovirus anti repeat – second read-out of Arbovirus anti, no call of its own (marks repeat the call); inhibition, %; measured here: 10K subset replicate screen; many hits read low in the repeat;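 first of two repeat runs on a subset; 0% = infected and 100% = uninfected wells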
# * = called active by the depositor; ? = inconclusive; nt = no result given. Only part of the results is shown. The share of hits here may be higher or lower than overall.
SMILES,RecA splice inh,Arbovirus anti,Mtb betalactam,Mtb H37Rv,YopH inh,others
COCC1CCN(C(=O)c2cc(COc3ccccc3SC)on2)C1 (stereo not given),4.7,nt,-2,nt,nt,
O=C(Nc1cccc(F)c1)NC1CCCc2ccccc21 (stereo not given),1.7,nt,-6,nt,nt,
CC1COc2ccccc2N1C(=O)c1cccnc1Cl (stereo not given),-0.1,4,0,8%,nt,
CC1=CC(C)(C)Nc2ccc(OC(=O)CN3C(=O)c4ccccc4C3=O)cc21,-20,-33,0,-12%,-27,
COC(=O)c1cc(S(=O)(=O)NCC(C)c2ccccc2)cn1C (stereo not given),2.4,nt,-6,nt,nt,
CCc1ccc(C(O)(C(C)C)C(CN2CCOCC2)c2ccccc2)cc1 (stereo not given),13,nt,8,nt,nt,
ClCCN1C2=NCCCN2c2ccccc21,0.2,2,7,0%,nt,
C=CCn1cc(Cl)cc(C(=O)Nc2ccccc2)c1=O,3.2,nt,5,nt,nt,
FC(F)(F)c1ccccc1NC(=S)NN=C1CCCCCC1,nt,-20,7,-6%,nt,
Cc1ccccc1NC(=O)c1ccc(S(=O)(=O)N2CCCC2)cc1,-3.6,nt,-2,nt,nt,
Cc1cccc(OCC(=O)Nc2ccccc2C(F)(F)F)c1,0.0,-9,3,0%,2,
CCCCn1c(N)c(N(CCOC)C(=O)COC(=O)COc2c(C)cc(C)cc2C)c(=O)[nH]c1=O,0.0,nt,-4,nt,nt,
CC(C)CCNc1nc2c(cc1C#N)COC(C)(C)C2,-6.2,-9,-3,12%,-12,
COC(=O)C1CN(C(=O)c2cccc(OC(F)F)c2)c2ccccc2O1 (stereo not given),1.0,nt,0,nt,nt,
CCCCCCS(=O)[C@H]1CS(=O)(=O)C[C@@H]1S(=O)CCCCCC (stereo not given in full),-2.1,8,-2,-2%,-11,
COc1ccc(N2CCN(C(=O)c3[nH]c4ccc(OC)cc4c3C)CC2)cc1,-0.4,nt,0,nt,nt,
NS(=O)(=O)c1ccc(F)c(C(=O)O)c1,nt,nt,-1,-1%,nt,
COc1ccc(CCNC(=O)CCn2c(=O)c3cccn3c3ccc(F)cc32)c(OC)c1OC,1.9,nt,3,nt,nt,
O=C(CC1C(=O)N(c2ccc(F)cc2)C(=O)N1Cc1ccccn1)Nc1ccccc1 (stereo not given),-0.7,11,-7,-2%,-29,
C1CCC(Nc2nnnn2C2CCCCC2)CC1,-0.9,6,5,-6%,-39,Arbovirus anti repeat=0
COc1ccc(CC(=O)N2CCN(C)CC2)cc1OC,-1.0,12,12,-5%,-6,
CCCC(C)C(=O)Nc1ccc(S(=O)(=O)N2CCCC2)cc1 (stereo not given),1.1,nt,-7,nt,nt,
CC(C)CNC(=O)c1ccccc1NC(=O)c1ccccc1N(C)S(=O)(=O)c1ccccc1,-1.0,-2,0,-8%,-20,
COc1ccc(N(CC(=O)NCc2ccco2)S(C)(=O)=O)cc1Cl,1.4,4,-1,-10%,-61,Arbovirus anti repeat=-1
CC(C)(C)NC(=O)Cn1nnnc1-c1nonc1N,-1.3,11,-10,-10%,4,
COC(=O)c1sc(N2CCCCC2)c(C#N)c1N,0.0,nt,3,-1%,nt,
O=C(O)CSc1c2c(nc3cc(C(=O)NCCN4CCOCC4)ccc13)CCC2,1.9,nt,-10,-7%,nt,
CC(Sc1ccc(Cl)cc1)C(=O)Nc1ccc(S(=O)(=O)N2CCOCC2)cc1 (stereo not given),-0.6,9,-4,1%,18,
CCOC(=O)N1CCN(C(=O)CN2C(=O)COc3ccc(S(=O)(=O)N4CCOCC4)cc32)CC1,5.6,nt,2,nt,nt,
O=C1C2CCCN2C(=O)N1CCCCN1CCN(c2cccc(Cl)c2)CC1 (stereo not given),-0.3,2,-1,4%,-12,
Cc1scc(C(=O)N2CCN(S(C)(=O)=O)CC2)c1-c1ccccc1,0.8,3,-7,-2%,-22,
Cc1cc(C)c2c(CN3CCC(C)CC3)cc(=O)oc2c1C,4.7,nt,-9,nt,nt,
CN(C(=O)C1CCCO1)C1CCS(=O)(=O)C1 (stereo not given),-1.8,nt,-2,nt,nt,
CCOc1ccc(Nc2nc(NCC3CCCO3)c3ccccc3n2)cc1 (stereo not given),12,-36,98,11%,nt,
CC12CC3CC(C)(C1)CC(C(=O)NCc1ccco1)(C3)C2,4.0,8,1,-3%,nt,
CC(=O)n1cc([C@@H]2C=C(C(=O)N3CCN(Cc4ccccc4)CC3)O[C@H](OCc3ccc(CO)cc3)C2)c2ccccc21,9.1,-12,57,2%,nt,
O=C(NCc1nnnn1-c1cccc(F)c1)c1ccc(S(=O)(=O)N2CCOCC2)cc1,-3.1,nt,0,nt,nt,
COCCCN(C(=O)c1ccccc1)c1nc(-c2ccc(OC)cc2)cs1,10,nt,68,nt,nt,
COc1ccccc1C(=O)Nc1nnc(S(=O)(=O)N2CCC(C)CC2)s1,-0.5,nt,-1,nt,nt,
N#Cc1sc2nc(C3CC3)cc(-c3ccccc3)c2c1N,-0.8,2,3,-10%,-23,
CCCCN(CC)CCCNC(=O)c1cn(CC(C)C)c(=O)c2c1c1ccccc1n2C,-0.6,nt,11,nt,nt,
COc1cc(/C=N/NS(=O)(=O)c2ccc(C)cc2)ccc1OCc1ccc(C(=O)O)cc1,1.4,1,1,5%,nt,
CCOC(=O)C1(CC2CCCCO2)CCN(C(=O)Nc2ccccc2)CC1 (stereo not given),-0.7,-5,1,2%,nt,
Cc1ccc(O)c(-c2cc(C(=O)Nc3ccc(S(=O)(=O)Nc4nc(C)cc(C)n4)cc3)[nH]n2)c1,-0.5,35*,-4,15%,-5,
CC(C)(C)/C(COc1ccccc1[N+](=O)[O-])=N/O,-2.3,7,0,-2%,nt,
O=C(CCNC(=O)c1ccc(Br)o1)NC1CCCC1,-0.5,-3,-10,-23%,-5,
CCCn1cc(SCC(N)=O)c2ccccc21,1.0,-1,4,-3%,nt,
CC(NC(=O)C(Cc1ccccc1)NC(=O)c1ccccc1)C(=O)O (stereo not given),-18,-4,9,-3%,-28,

# Grouped by structure: the entries above with a COOH group
SMILES,RecA splice inh,Arbovirus anti,Mtb betalactam,Mtb H37Rv,YopH inh,others
NS(=O)(=O)c1ccc(F)c(C(=O)O)c1,nt,nt,-1,-1%,nt,
O=C(O)CSc1c2c(nc3cc(C(=O)NCCN4CCOCC4)ccc13)CCC2,1.9,nt,-10,-7%,nt,
COc1cc(/C=N/NS(=O)(=O)c2ccc(C)cc2)ccc1OCc1ccc(C(=O)O)cc1,1.4,1,1,5%,nt,
CC(NC(=O)C(Cc1ccccc1)NC(=O)c1ccccc1)C(=O)O (stereo not given),-18,-4,9,-3%,-28,

# The list continues.
SMILES,RecA splice inh,Arbovirus anti,Mtb betalactam,Mtb H37Rv,YopH inh,others
O=C(NCCOc1ccc(Cl)cc1)c1ccc2ccccc2n1,7.6,6,83,?,nt,
CCOC(=O)N1CCC(Nc2c([N+](=O)[O-])cc(C(=O)O)cc2[N+](=O)[O-])CC1,-1.6,nt,3,nt,nt,
O=C(c1ccccc1)N1CCN(S(=O)(=O)N2CCCCC2)CC1,1.8,8,-6,-5%,25,
Cc1ccc(-c2nc(CS(=O)CC(=O)NCc3ccccc3)c(C)o2)cc1 (stereo not given),25,-5,0,3%,-29,Arbovirus anti repeat=3
CCOC(=O)[C@@H]1[C@H]2COc3ccccc3[C@H]2N2C(=O)N(c3ccc(OC)cc3)C(=O)[C@]12C,-3.6,nt,-2,nt,nt,
CCOC(=O)c1c(C)[nH]c(C)c1S(=O)(=O)N(C)CC(=O)NCc1ccc(F)cc1,-1.3,nt,1,nt,nt,
Nn1c(SCC(=O)Nc2ccccc2Br)nnc1-c1ccco1,1.4,nt,-6,nt,nt,
CCCNc1c(NS(=O)(=O)c2cccc(C#N)c2)c(=O)oc2ccccc12,-3.1,nt,-1,nt,nt,
COc1c(O)ccc2cnn(-c3ccccc3C)c(=O)c12,-7.1,-5,3,-9%,-28,
Cc1noc(NS(=O)(=O)c2ccc(NC(=O)CSc3nnc(-c4ccccc4)n3C3CCCCC3)cc2)c1C,3.0,1,23,-6%,-20,
CCn1c(SCC(=O)O)nnc1-c1ccc(S(=O)(=O)N2CCCC2)cc1,1.6,nt,-2,nt,nt,
CCC1SC2=NC(C)=C(C(=O)OCC(C)C)C(/C=C/c3ccccc3OC)N2C1=O (stereo not given),5.3,8,4,3%,18,
FC(F)(F)c1cc(-c2ccccc2)nc2ncnn12,0.1,-8,2,-16%,-16,
COC(=O)c1c(C(=O)OC)c(-c2cccc(F)c2)n2c1CS(=O)C2 (stereo not given),3.9,nt,-5,nt,nt,
O=C(COC(=O)[C@@H]1CCCN1S(=O)(=O)c1ccc(Cl)cc1)NC1CCS(=O)(=O)C1 (stereo not given in full),0.8,nt,1,nt,nt,
CCOC(=O)CC1COCCN1C(=O)CCc1nnc(-c2ccsc2)o1 (stereo not given),-0.5,2,0,1%,nt,
O=C(CN1CCSCC1)N/N=C/c1ccc(F)cc1,-6.0,5,-11,-1%,5,
CCCc1cc2c(cc1NC(=O)c1ccccc1F)OCO2,5.5,-12,82,12%,-15,
CCN(Cc1cn2cccnc2n1)C1CCCCC1,-3.7,0,-10,-7%,nt,
CCCn1c(N)c(C(=O)CSc2n[nH]c(-c3ccc(C)cc3)n2)c(=O)[nH]c1=O,2.6,nt,-12,nt,nt,
C(=N/Nc1cc(N2CCOCC2)nc(N2CCOCC2)n1)/c1ccccc1,-5.7,-22,2,9%,-6,
CCOc1ccc(OCCSc2nnnn2C2CCCCC2)cc1,7.1,-8,-4,nt,-39,
O/N=C/c1cccn1-c1ccc(O)cc1,nt,7,4,-10%,4,
COc1ccc2nc(NC(=O)c3ccc(F)cc3)sc2c1,-4.0,nt,10,nt,nt,
NNc1ccc(S(=O)(=O)N2CCCCC2)cn1,-5.3,nt,-9,-3%,nt,
COc1cccc(C(=O)Nc2nnc(SCC(=O)NC3CCCC3)s2)c1,-0.2,nt,5,nt,nt,
COc1ccc(-n2c(SCC(=O)NCc3cccs3)nc3[nH]ncc3c2=O)cc1,0.5,1,-2,1%,nt,
COCCN(C(=S)Nc1ccccc1OC)C(C)c1cccs1 (stereo not given),0.2,-6,-7,10%,-23,
Cc1ccc(S(=O)(=O)N2CCCCC2)cc1NC(=O)COC(=O)c1cc[n+]([O-])cc1,1.8,-2,-5,-5%,-12,
Cc1ccc(NC(=O)CCSc2nnc(C)s2)cc1,-0.8,7,35,8%,-12,
COc1ccc(-c2nc(CN3CCCC(C(=O)NC4CCCC4)C3)c(C)o2)cc1 (stereo not given),-0.2,-1,0,5%,-7,
O=C(NNC(=O)c1ccccc1-n1cccc1)c1ccc(F)cc1,-4.3,-1,20,-1%,nt,
COC(=O)c1ccccc1NC(=S)N(Cc1ccc2c(c1)OCO2)Cc1cc2cccc(C)c2[nH]c1=O,1.4,15,-9,9%,-35,
Cc1cccc(C)c1NC(=O)CCc1nnc2ccc(N3CCCC3)nn12,-1.2,nt,4,nt,nt,
CCN(CC)CCCNC(=O)c1cc2c(-c3ccc(Cl)cc3)nn(C)c2s1,nt,-27,59,4%,-27,Arbovirus anti repeat=-26
COC(=O)C(NC(=O)c1ccccc1C)(Nc1ncc(S(=O)(=O)c2ccc([N+](=O)[O-])cc2)s1)C(F)(F)F (stereo not given),4.4,4,?,6%,-21,
OC(COc1ccc(OCc2ccccc2)cc1)CN1CCCCC1 (stereo not given),0.3,-30,1,4%,7,
CCOC(=O)c1c(C)[nH]c(C(=O)CN2C(=O)NC(C)(CC(C)C)C2=O)c1C (stereo not given),-3.4,18,-3,2%,nt,
COc1ccc(C(=O)NCc2ccc(N3CCN(C(=O)OC(C)(C)C)CC3)cc2)cc1,-4.1,1,12,0%,0,
COc1ccc(CCNc2ccc(C(CC(N)=O)NC(=O)c3ccccc3)cc2[N+](=O)[O-])cc1 (stereo not given),1.2,nt,-2,-7%,nt,
COCCn1c(C)cc2c(c1=O)C(c1ccco1)C(C#N)=C(N)O2 (stereo not given),-1.1,2,-3,-10%,-19,
Cn1cc(CN2CCC(C(=O)Nc3cccc(-c4cccc(F)c4)c3)CC2)cn1,2.8,nt,5,nt,nt,
Cc1cccc(C(=O)Oc2ccc(/C=N/NC(=O)c3ccccc3O)cc2)c1,0.2,-7,17,12%,-52,
COC(=O)CC(c1ccc(OC)c(OC)c1)c1ccc(OC)c(OC)c1,-5.1,5,-2,1%,nt,
CCC(C)(C)NC(=O)C(c1cccn1C)N(C(=O)Cn1nnc2ccccc21)c1ccc(OC)cc1OC (stereo not given),nt,10,5,-8%,-4,
O=C(NCCCn1ccnc1)c1cc(-c2cccs2)on1,-0.2,-6,-2,-5%,-4,
